Assay outcomes from PubChem BioAssay.
Anthrax LT inh – blocks cellular internalization of anthrax lethal toxin; Cells, anthrax lethal toxin internalization, FRET ratio (460/530); Potency, µM (doses to about 40 µM), for inactives: at the top dose activity change, negative = inhibition, hits mostly inhibitors; 70,000 compounds, 0.67% hits; AID 912; active = well fitted falling ratio curve with the 530 nm signal flat; inconclusive = other ratio curves, or a change in one channel alone; inactive = flat curves in the ratio and both channels; the % refers to the ratio; further: on the % scale 0 is the no-effect control and ±100 the full control effect; nearly all actives have a fitted effect of over 50% in size; tested in ME-180 cells; beta-lactamase reporter
SmPrx2 inh – Schistosoma mansoni Prx2 inhibition; Potency, µM; S. mansoni Prx2 activity coupled to TGR/GSH (TGR is thioredoxin glutathione reductase), NADPH fluorescence loss, qHTS; some inactives read as strong as hits; AID 448; 65,000 compounds, 0.07% hits; active means full or partial inhibition curve with a strong effect at the top dose; inconclusive means weaker partial or single-point curve; inactive means no accepted curve; further: series up to 57 µM; many of its hits are not listed in these tables
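qHTS, coupled TGR/Prx2 format; 15 min compound preincubation at RT; reaction started with H2O2 (2.5 mM aliquot); kinetic NADPH fluorescence decrease, ex 365/em 450 nm.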
* = called active by the depositor; ? = inconclusive; / = not tested or not shown; & = joins results of further samples; [ ] = another dose, or the depositor's remark. Potency means the concentration at half of the fitted maximal effect.

| structure | Anthrax LT inh | SmPrx2 inh |
| --- | --- | --- |
| O=C(CN1CCOCC1)Nc1ccc(Oc2ccc(NC(=O)CN3CCOCC3)cc2)cc1 | ? | >57 |
| CC(=O)N1CCC2(CCCN(C(=O)Nc3cccc(C#N)c3)C2)CC1 | ? | >57 |
| Cc1cc(CNC(=O)[C@H](C)[C@@H]2C[C@@]2(C)[C@@H](NC(=O)OCc2ccccc2)c2ccccc2)nn1C | -0.5% | >57 |
| CCOc1cc(C)c(Cl)cc1S(=O)(=O)n1cnc2ccccc21 | -17.7% | >57 |
| COc1ccc(NC(=O)C2CC(=O)NC(Nc3cccc(C)c3)=N2)cc1 (centres undefined) | 0.1% | >57 |
| COc1ccc(S(=O)(=O)N(C)CC(=O)N2CCOCC2)cc1 | -3.9% | >57 |
| O=C1CC[C@](CCc2nc3ccccc3[nH]2)(c2ccccc2)C(=O)N1 | ? | >57 |
| Cc1ccc2c(c1)c1c(n2CC(O)CNC(CO)(CO)CO)CCCC1 (centres undefined) | -28.5% | >57 |
| COc1ccccc1-n1cc(C(=O)NCC(=O)N2CCN(c3ccccn3)CC2)c2ccccc2c1=O | 25.7% | >57 |
| COc1ccc(NCc2cc3cc(OC)ccc3[nH]c2=O)cc1 | 5.7% | >57 |
| Cc1nnc(SCc2cc(=O)[nH]c(Nc3nc(C)c4ccccc4n3)n2)s1 | 7.2% | >57 |
| CC(=O)NC12CC3CC(C)(C1)CC(NC(C)=O)(C3)C2 | 3.8% | / |
| Cc1ccc(CC(CC(=O)O)C(=O)NC2CCCCC2)cc1 (centres undefined) | -4.5% | / |
| O=C(NCc1ccco1)C1CC(=O)N(c2ccc(F)cc2)C1 (centres undefined) | 2.8% | >57 |
| CCN(Cc1ccncc1)C(=O)[C@@H](CO)c1ccccc1 | ? | >57&>57&>57 |
| Cc1ncoc1C(=O)Nc1ccc(Oc2ccccc2)cc1 | 12.6% | >57 |
| COc1ccc2nc3oc(C(=O)N4CCCCC4)cc3cc2c1 | 11.4% | >57 |
| O=S(=O)(c1ccc(F)c(Cl)c1)N1CCCC1 | -11.4% | >57 |
| O=S(=O)(N1CCCCC1)N1CCN(S(=O)(=O)N2CCCCC2)CC1 | 5.6% | >57 |
| Cc1ccnc(NC(=O)C2CCN(S(=O)(=O)c3cccc4nsnc34)CC2)c1 | 11.6% | >57 |
| O=C(O)CCC(=O)N(Cc1ccco1)c1nc(-c2ccccc2)cs1 | -4.5% | >57 |
| O=NN(Cc1ccc(Cl)cc1)[C@@H](C(=O)O)c1ccccc1 | -8.8%[8 µM] | >57 |
| O=C(O)C1CCCCC1C(=O)Nc1ccccc1F (centres undefined) | / | >57 |
| CCN1C(=O)/C(=C2/C=CC=CN2C)OC1=S | 8.6% | / |
| Cc1sc2ncn3ncnc3c2c1C | -1.7% | >57 |

Part of the list above, with each value named:
O=C(NCc1ccco1)C1CC(=O)N(c2ccc(F)cc2)C1 (centres undefined)
- Anthrax LT inh: 2.8%
- SmPrx2 inh: >57
CCN(Cc1ccncc1)C(=O)[C@@H](CO)c1ccccc1
- Anthrax LT inh: ?
- SmPrx2 inh: >57&>57&>57
Cc1ncoc1C(=O)Nc1ccc(Oc2ccccc2)cc1
- Anthrax LT inh: 12.6%
- SmPrx2 inh: >57
COc1ccc2nc3oc(C(=O)N4CCCCC4)cc3cc2c1
- Anthrax LT inh: 11.4%
- SmPrx2 inh: >57

(continued)
| structure | Anthrax LT inh | SmPrx2 inh |
| --- | --- | --- |
| Cc1ccc(C(=O)Nc2ccc(S(=O)(=O)N3CCc4ccccc4C3)cc2)o1 | -26.3% | >57 |
| CCN(CC)c1nc2n(c(=O)n1)CCN2CC | 1.3% | >57 |
| COc1ccc(C2C(=O)N(C3CCCCC3)CC(=O)N2C2CCCC2)cc1 (centres undefined) | -3.3% | >57 |
| O=C(c1n[nH]c(=O)c2ccccc12)N1CCN(C2c3ccccc3-c3ccccc32)CC1 | 12.3% | >57 |
| O=C(OCC(=O)N1CCN(C(=O)c2ccco2)CC1)c1cn(-c2ccccc2)nc1-c1ccccc1 | 0.0% | >57 |
| N=c1c(C(=O)NCc2ccc3c(c2)OCO3)cc2c(=O)n3ccccc3nc2n1Cc1cccnc1 | 6.1% | >57 |
| CCOc1ccc2nc(NC(=O)c3ccoc3C)sc2c1 | -5.5% | / |
| N#CCSc1nc2[nH]ncc2c(=O)n1-c1ccccc1Br | -18.1% | >57 |
| Cc1noc(C)c1S(=O)(=O)Nc1ccc(C(=O)NCc2ccccc2)cc1 | -16.9% | >57 |
| Cc1ccc(-c2nn(C)c(=O)c3ccccc23)cc1S(=O)(=O)NCCO | 3.8% | >57 |
| Cc1cccc(OCC(=O)N2CCN(C(=O)CCC3CCCC3)CC2)c1 | -0.8% | >57 |
| COC(=O)C1C(=O)C2=C(CC1C)NC(C)=C(C(=O)OC1CCCC1)C2c1ccc(N(C)C)cc1 (centres undefined) | ? | >57 |
| Cn1cccc1Cc1nnc(SCC(=O)Nc2ccccc2)n1-c1ccc(F)cc1 | -20.4% | >57 |
| CN1CCN(c2ncc3nc(CCc4ccccc4)c(=O)n(CCc4ccccc4)c3n2)CC1 | ? | >57 |
| CC1(C)C(c2ccc(Cl)cc2)=[N+]([O-])C2(CCCC/C2=N\O)N1O (centres undefined) | -5.1% | / |
| Cc1ccc(NC(=O)CCCCCC2NC(=O)NC2C)cc1 (centres undefined) | 8.2% | >57 |
| COc1cc(C(=O)O)ccc1OC(C)=O | -8.2% | >57 |
| Cc1cc(N2CC(C(=O)O)CC2=O)ccc1Br (centres undefined) | 4.7% | >57 |
| COc1nc(-c2ccccc2)cc(-c2ccc(OC)c(OC)c2)n1 | 12.6µM* | / |
| Cc1cc(C(F)F)n2nc(C(=O)NCc3ccccc3F)nc2n1 | -3.9% | >57 |
| CC(=O)Cn1c(CN2CC(C)CC(C)C2)nc2c1c(=O)n(C)c(=O)n2C (centres undefined) | / | >57 |
| CC(=O)c1cccc(NC(=O)NC(C)c2ccncc2)c1 (centres undefined) | -9.9% | >57 |
| CCOC(=O)CNC(=O)CSc1nc(N(C)C)nc(N2CCOCC2)n1 | 6.6% | >57 |
| O=C(Cn1nnc2ccccc2c1=O)Nc1cc(C(F)(F)F)ccc1N1CCOCC1 | -13.9% | >57 |
| O=C(Cc1ccccc1)Nc1ccc2oc(-c3ccncc3)nc2c1 | 0.7% | >57 |
| CC1(C)CC(=O)C(C=NC2CC(C)(C)NC(C)(C)C2)=C(O)C1 | 9.2% | / |
| c1ccc(-n2ncc3c2ncn2nc(-c4ccco4)nc32)cc1 | ? | >57 |
| Cc1ccc(C(C(=O)NC2CCCCC2)N2CCCC2)cc1 (centres undefined) | -6.6% | >57 |
| CC(C)NC(=O)N1CCC2(CC1)CCN(C(=O)c1cccc(F)c1)CC2 | 15.0% | >57 |
| CCN(CCNC(=O)CCCn1nc(C)n2c(cc3sccc32)c1=O)c1ccccc1 | -11.6% | >57 |
| COc1cccc(Cn2c(=O)cnc3cnc(OC)nc32)c1 | -2.9% | >57 |
| COc1ccc2nc3c(cc2c1)c(NC(=O)c1cccs1)nn3CC(C)C | ? | >57 |
| CN(c1ccc(C(=O)NC2CC2)cc1)S(=O)(=O)c1ccccc1 | 1.7% | >57 |
| CCOc1cc(C(=O)NCC2CCCO2)cc(OCC)c1OCC (centres undefined) | ? | >57 |
| CC(C)OCCCNc1ncc2c(n1)CC(c1ccc(N(C)C)cc1)CC2=O (centres undefined) | 13.9% | >57 |
| OC1(c2ccc(F)cc2)CCN(Cc2ccccc2)C1 (centres undefined) | -15.3% | >57 |
| ON=Cc1cccn1-c1ccccc1 | -11.0% | / |
| CC(=O)NC(Cc1ccc(F)cc1)C(=O)N1CCN(C(=O)NCc2ccccc2)CC1 (centres undefined) | -0.7% | >57 |
| CCN(c1ccccc1)S(=O)(=O)c1cccc(C(=O)O)c1 | 0.0% | >57 |
| COc1ccc(S(=O)(=O)NC2CCCC2)cc1Br | -1.8% | >57 |
| C[C@H]1CCCC=CC2C[C@H](O)C[C@@H]2[C@H](O)/C=C\C(=O)O1 (some centres undefined) | ? | >57 |
| CCOC(=O)/C(C(N)=NCc1ccco1)=C(/O)c1ccccc1 | -10.1% | / |
| CCN1CCN(Cc2c(C)[nH]c3ccc(OC)cc3c2=O)CC1 | -2.4% | >57 |
| NC(=O)COC(=O)c1cc(S(=O)(=O)N2CCOCC2)ccc1N1CCCCC1 | -5.8% | >57 |
| Cc1nn2c(=O)c(NC(=O)c3ccc(F)cc3)cnc2s1 | 3.8% | >57 |
| COC(=O)N1CCN(c2ccc(OC)cc2)CC1 | -5.0% | >57 |
| O=C1NC2(CCCCC2)N=C1c1ccc(F)cc1 | -5.7% | >57 |
| O=C(NCC1CCCO1)C1CC(=O)N(c2ccc(F)c(Cl)c2)C1 (centres undefined) | -6.1% | >57 |
| COc1ccc(CCNC(=O)Cn2c(=O)cnc3ccccc32)cc1 | -5.1% | >57 |
| Fc1ccc(C2CC(c3ccccc3)Nc3ncnn32)cc1 (centres undefined) | -11.1% | >57 |

(next part)
| structure | Anthrax LT inh | SmPrx2 inh |
| --- | --- | --- |
| CCOc1ccc(Cc2nn[nH]n2)cc1 | 0.4% | >57 |
| Cc1ccccc1OCCN1C(=O)NC2(CCc3ccccc32)C1=O (centres undefined) | 5.3% | >57 |
| COc1cc2c(cc1OC)C(C(=O)Nc1ccc3c(c1)OCCO3)C1c3ccccc3CCN1C2=O (centres undefined) | 20.8% | >57 |
| O=C(CSc1nccn1-c1ccc(F)cc1)Nc1ccc2c(c1)OCO2 | -2.8% | >57 |
| O=C(Oc1ccc2c(c1)OCO2)c1ccncc1 | -12.2% | >57 |
| O=C(Oc1ccc2c(c1)CCC2)N1CCOCC1 | ? | >57 |
| CC(=O)NC(CCS(C)(=O)=O)C(=O)Nc1c(C)cccc1C (centres undefined) | -8.2% | >57 |
| C/C=C(/C)C#N | ? | / |
| Cc1ccc(C)c(NC(=O)CCN2CC(C)OC(C)C2)c1 (centres undefined) | 6.0% | >57 |
| O=C(CC1Oc2ccccc2NC1=O)NCCCN1CCCC1=O (centres undefined) | 1.5% | >57 |
| OCCn1c(SC2CCCCC2)nc2ccccc21 | / | >57 |
| CC12CCC(C(=O)Nc3cccnc3)(CC1=O)C2(C)C (centres undefined) | 0.6% | >57 |
| O=C1NCCN1Cc1ccccc1F | 7.0% | >57 |
| O=C(NCc1nnc(SC/C=C/c2ccccc2)o1)c1ccco1 | 3.6% | >57 |
| CNC(=O)ON(C(=O)NC)C1N(C)C(=S)SC1(C)C (centres undefined) | ? | >57 |
| Cc1onc(-c2ccccc2)c1C(=O)Nc1ccc2c(C)cc(=O)oc2c1 | -7.6% | >57 |
| O=C(Cn1c(=O)oc2cc(S(=O)(=O)N3CCc4ccccc43)ccc21)NC1CCCC1 | ? | >57 |
| COc1ccc(N2CCN(c3ccc(N)cc3C#N)CC2)cc1 | -2.5% | >57 |
| CCOC(=O)C1CCN(S(=O)(=O)c2c(C)n[nH]c2C)CC1 | 2.7% | >57 |
| CC(Oc1ccccc1Cl)C(=O)N(Cc1ccco1)C1CCS(=O)(=O)C1 (centres undefined) | 13.7% | >57 |
| O=C(O)CSc1nnc2c3ccccc3c3ccccc3c2n1 | ? | >57 |
| COc1ccc(NC(=O)CN2CCC(NC(=O)C3CCCCC3)CC2)cc1 | -4.9% | >57 |
| Cc1ccc(C2N(c3cc(C)on3)C(=O)C3CCCN32)cc1 (centres undefined) | -20.6% | >57 |
| CCC(=O)O[C@@](Cc1ccccc1)(c1ccccc1)[C@@H](C)CN(C)C | 7.8%[3.58 µM] | >57 |
| Cc1ccccc1-c1cc(NCc2cccnc2)ncn1 | 4.4% | >57 |
| Cc1cccc(-n2c(Cc3cc(=O)[nH]c(=O)[nH]3)nnc2SCC(=O)NCC2CCCO2)c1 (centres undefined) | 1.7% | >57 |
| CSc1cccc(NC(=O)CN(c2cc(C)ccc2C)S(C)(=O)=O)c1 | ? | >57 |
| CCOc1ccccc1NC(=O)CSc1nnc2c(CC)c(C)nc(N)n12 | ? | >57 |
| CCCCC1(C2CCCC2)Cc2cc(OCCCC(=O)O)c(Cl)c(Cl)c2C1=O (centres undefined) | ? | / |
| Cc1ccc(NS(=O)(=O)c2ccc(C(=O)N3CCCN(C)CC3)cc2)cc1 | 2.2% | >57 |
| CC(=O)NCCNc1ncnc2ccc(-c3cccc(NS(C)(=O)=O)c3)cc12 | -0.4% | >57 |
| CC(=O)c1c(C)[nH]c(C(=O)OCC(=O)Nc2cc(C)on2)c1C | 1.9% | >57 |
| CCOC(=O)C1=C(N)OC2=C(C(=O)CC(C)(C)C2)C1c1cccnc1 (centres undefined) | -2.1% | >57 |
| COc1ncc2nc(-c3ccc(F)cc3)c(=O)n(C[C@H]3CCCO3)c2n1 | -6.3% | >57 |
| O=C(c1ccccc1)N1CCN(c2ccc(Cl)cc2)CC1 | -16.2% | / |
| CCS(=O)(=O)c1ccc2oc(Nc3ccccc3C)nc2c1 | -0.5% | >57 |
| COC(=O)[C@H](Cc1ccccc1)NC(=O)[C@@]1(C)C[C@@H]1[C@@H](NC(=O)OCc1ccccc1)c1ccccc1 | -20.6% | / |

Not all compounds are listed (hit frequency here may not be typical).
